Screening data (PubChem)
Calb FLC – C. albicans growth inhibition with fluconazole, primary screen, CaCi-2 strain, Alamar Blue fluorescence. C. albicans CaCi-2 (fluconazole-resistant clinical isolate) + fluconazole, 48 h. 300,000 compounds, 0.57% hits. growth inhibition, % (test concentration not listed);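 active = most replicates above 75%; inconclusive = exactly half above 75%; inactive = most below 75%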;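 note: all wells also contain fluconazole at 8 µg/ml as a sub-toxic cotreatment; 0% = median of DMSO wells and 100% = median of geldanamycin control wells; wells of about 8 µL received 7.5 nL stock; the first replicate is given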
MLL AF4-AF9 inh – inhibitors of AF4 peptide binding to AF9, primary screen, biochemical, AlphaScreen, biotin-AF4 peptide, FLAG-AF9, single point. Protein AF-9 (Homo sapiens), P42568. 350,000 compounds, 0.47% hits. inhibition, % at 10 µM. AID 651704, 2012;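 active = every replicate reaching a set inhibition limit, whatever the replicate mean, cut at about 25% in these data; inconclusive = mean inhibition reaches that limit but some replicates miss it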;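 note: 0% = plate neutral control median and 100% = total signal loss; the record names both 10 and 1 µM as test concentration; the first replicate is given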
Target sequence (P42568 whole entry, looked up): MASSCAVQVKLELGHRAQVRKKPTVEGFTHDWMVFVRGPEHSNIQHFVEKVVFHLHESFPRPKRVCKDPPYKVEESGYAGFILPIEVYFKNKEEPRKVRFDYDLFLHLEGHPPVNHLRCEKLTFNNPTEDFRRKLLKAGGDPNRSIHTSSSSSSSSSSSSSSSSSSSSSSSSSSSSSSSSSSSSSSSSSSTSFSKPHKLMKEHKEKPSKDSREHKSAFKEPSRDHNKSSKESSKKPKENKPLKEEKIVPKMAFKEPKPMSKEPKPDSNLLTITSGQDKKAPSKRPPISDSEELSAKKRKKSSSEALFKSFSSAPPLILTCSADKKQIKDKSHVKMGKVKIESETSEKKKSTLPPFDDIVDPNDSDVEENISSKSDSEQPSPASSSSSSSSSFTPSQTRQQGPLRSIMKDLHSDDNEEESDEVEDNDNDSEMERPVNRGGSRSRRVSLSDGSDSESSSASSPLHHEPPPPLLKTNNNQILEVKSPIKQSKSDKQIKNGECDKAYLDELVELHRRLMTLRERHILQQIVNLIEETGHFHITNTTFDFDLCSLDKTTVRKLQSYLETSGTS
RanGTP-Impb inh – inhibitors of RanGTP-importin-beta interaction, primary screen, biochemical, FRET, CFP-Ran, YFP-importin-beta, homogeneous; Ran GTPase (GTP-bound) - importin-beta complex; cell-free CFP-Ran/YFP-importin-beta FRET ratio; inhibition, % (no concentration beside the values); 300,000 compounds, 1.1% hits; AID 2216, 2009;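 active = most replicates above 15%; inconclusive = exactly half above 15%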;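 note: 0% = DMSO wells and 100% = Ran loaded with GDP instead of GTP; wells of about 40 µL received 100 nL stock; the first replicate is given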
Beta cell apopt – inhibitors of cytokine-induced beta cell apoptosis, primary screen, luminescence; INS-1E cytokine-induced death, ATP luminescence, 48 h; percent of positive-control rescue, neutral wells zero; protection from apoptosis, % (no concentration beside the values); 300,000 compounds, 0.8% hits; AID 435005, 2010;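 active = all replicates at 75% or more, or half of them and the mean; inconclusive = half reach 75% but not the mean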;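 note: 0% = cytokine-treated negative control wells and 100% = positive control rescue; higher means more ATP so stronger rescue from cytokine killing; wells of about 40 µL received 100 nL stock; the first replicate is given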
Vif TR-FRET – inhibitors of Vif binding to APOBEC3G peptide, primary screen, biochemical, TR-FRET, GST-Vif 1-94, biotin-A3G peptide, dose response retest (AID 1117319). Virion infectivity factor (Human immunodeficiency virus type 1 group M subtype B (isolate …. TR-FRET GST-Vif / biotin-A3G peptide binding; higher % means a stronger effect; test concentration not given here; strong numbers were not always called active. inhibition, %, or IC50 in µM where a hit was titrated. 260,000 compounds, 0.57% hits;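 active = above the screen mean plus three standard deviations and confirmed in dose response; inconclusive = results disagree or hit not tested in dose response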;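 note: Vif residues 1-94 fused to GST binding biotinylated APOBEC3G peptide 110-148; 0% = full assay without inhibitor and 100% = GST in place of GST-Vif; retest series ran down from 100 µM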
T cruzi inh – inhibitors of intracellular T. cruzi growth, primary screen, luminescence, NIH3T3 host cells. T. cruzi beta-gal in NIH3T3, 90 h. inhibition, % (test concentration not listed). 300,000 compounds, 1.4% hits. AID 1885, 2009;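 active = mean inhibition across valid replicates above about 55%, limit read from the data; inconclusive = mean below that limit but half or more replicates reach it; inactive = mean below it, under half of replicates reach it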;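 note: signal also drops with host cell toxicity which is not excluded here; 0% = plate median of DMSO wells and 100% = zero luminescence signal; higher percent means less beta-gal luminescence so fewer parasites; stock transfer was 50 nL into about 50 µL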
Ecoli rRNA inh – reduced GFP signal of wild-type E. coli, primary screen, bacterial rRNA inhibitor project, GFP/RFP fluorescence, OD600, single point; E. coli WT GFP vs humanized-ribosome RFP mutants, 24 h; hits give low values; DMSO median 0, no signal -100; GFP signal change (wild-type ribosome), % (concentration not given with the values); 350,000 compounds, 1.6% hits; AID 720706, 2013;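 active = significant combined selectivity score with lowered wild-type GFP, culture density cut under 30%, mutant RFP and density less affected; inactive = any of these conditions unmet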; note: one replicate is shown; some compounds called inactive have numbers as strong as hits
Bfl-1 A1 inh – caspase 3/7 activation in MEF A1-2A-BIM cells, primary screen, A1 inhibitor project, cell-based, luminescence, HTS; 330,000 compounds, 0.066% hits; caspase activation, % (no concentration beside the values); AID 2462, 2010; Caspase-Glo 3/7 luminescence, 3 h; percent of clofoctol response, vehicle zero;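 active = over half of replicate activation scores above 10%, or exactly half above 10 with the replicate mean above 10; inconclusive = replicate mean below 10 yet half the replicates above 10; inactive = over half of replicates below 10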;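 note: wells of about 30 µL received 50 nL stock; many hits fall short of the cut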
Ecoli rRNA inh OD600 – further read-out of Ecoli rRNA inh, marked with its call; OD600 change, %; measured here: OD600 growth;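 optical density of the mix in the first replicate; 0 = DMSO median and -100 = no signal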
Ecoli rRNA inh RFP – further read-out of Ecoli rRNA inh, marked with its call; RFP signal change, %; measured here: RFP humanized mutant strains;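 first replicate; 0 = DMSO median and -100 = no signal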
* = called active by the depositor; ? = inconclusive; . = not tested or not shown. These rows are one share of the data. The share of hits here may be higher or lower than overall.

SMILES	Calb FLC	MLL AF4-AF9 inh	RanGTP-Impb inh	Beta cell apopt	Vif TR-FRET	T cruzi inh	Ecoli rRNA inh	Ecoli rRNA inh OD600	Ecoli rRNA inh RFP	Bfl-1 A1 inh
Cc1cc(-n2c(=O)c(C#N)cc3c(=O)n4ccccc4nc32)no1	-6	.	161*	-6	21%	-7	.	.	.	-0.1
COc1ccc(/C=N/Nc2ncnc3c2[nH]c2ccc(C)cc23)c(OC)c1OC	-4	-0.4	3.2	54	-8%	13	.	.	.	-0.2
C=CCn1c(SCC(=O)Nc2ccc(F)cc2)nnc1-c1cnccn1	7	-0.8	1.2	-1	.	-3	-3	2	-0.8	0.3
COc1ccccc1N(C)S(=O)(=O)c1ccc(C(=O)Nc2ccc(N3CCOCC3)cc2)cc1	-9	10	4.3	-2	3%	15	-18	-16	-2.4	0.6
CCN(CC)C(=O)CSc1ncnc2c1cnn2-c1ccccc1	-3	.	1.8	3	19%	13	.	.	.	-4.5
CCOC(=O)c1ccc(NC(=S)NCCCN2CCOCC2)cc1	-3	?	1.1	-7	17%	2	11	18	3.6	0.4
CN(C)S(=O)(=O)c1cc(NC(=O)Cn2ccsc2=N)ccc1Cl	-5	0.3	-0.6	-9	-9%	-8	10	0	-6.5	0.1
O=c1[nH]n2c(=O)c3c([nH]c2c1N=Nc1cccc(Cl)c1)CCCC3	21	.	?	-1	25%	-3	.	.	.	0.2
Cc1ccc(N/N=C(/Sc2nnnn2-c2ccccc2)C(=O)c2ccccc2)cc1	12	-25	6.7	5	23%	-1	-5	-10	3.5	0.2
O=C(Nc1nccs1)c1ccc2nccnc2c1	-4	.	-1.1	1	14%	-9	.	.	.	0.3
Cc1cc(OC(=O)c2ccc3ccccc3c2)c([N+](=O)[O-])c(=O)[nH]1	2	-4.6	-9.1	-3	?	-21	-1	-4	-1.9	0.3
O=C(CN1C(=O)NC2(CCOc3ccccc32)C1=O)Nc1ccc(Br)cc1F (stereo unspecified)	.	5.2	.	-2	-1%	.	-5	-5	-1.2	-1.1
COc1ccc(Cn2cccc(NC(=O)Nc3ccc(F)cc3)c2=O)cc1	-22	1.0	1.1	-2	15%	16	-18	-18	-0.6	-1.1
O=C(COC(=O)C1=COCCO1)Nc1ccc(Cl)cn1	.	1.3	.	-2	.	.	4	4	3.9	1.0
O=C(C1CC1)N1CCc2[nH]c3ccccc3c2C1	-7	.	13	-10	-6%	-15	.	.	.	0.1
Cc1nonc1C1CCCN1Cc1cn[nH]c1-c1ccc(-c2ccccc2)cc1 (stereo unspecified)	5	-1.0	0.9	5	-7%	34	-4	-2	0.4	0.2
O=C(CCCn1c(SCc2ccccc2F)nc2ccccc2c1=O)NCC1CCCO1 (stereo unspecified)	-2	0.4	2.2	-1	.	37	3	2	-6.2	1.2
COc1ccc(NC(=S)N2CCN(C(=O)c3ccco3)CC2)cc1OC	2	-0.5	3.0	-3	1%	-6	-45	-70	-12	1.1
CCOC(=O)C(=O)Nc1cc(C)nn1-c1nc2ccccc2[nH]1	51	6.3	9.8	0	.	-4	4	10	1.9	-1.3
O=C(Cn1nc(-c2ccc3c(c2)OCCO3)ccc1=O)Nc1ccc(-n2cnnn2)cc1	0	-3.9	1.1	-5	-5%	-3	27	20	0.9	-0.6
COc1cc(/C=N/NC(=O)C2C3CCCCC32C)cc(Br)c1O (stereo unspecified)	-2	.	-0.2	2	?	-4	.	.	.	0.4
CC1(c2ccc3ccccc3c2)NC(=O)NC1=O (stereo unspecified)	3	-3.6	1.9	-7	0%	-7	4	7	-9.1	1.9
CCC(=O)c1ccc(OCC(=O)OCC(=O)NC2CCCCCCC2)cc1	-13	-18	5.0	2	7%	-8	3	1	0.1	0.5
COc1cc(/C(C)=C/c2ccccc2)c2c(c1)oc1ccccc12	-1	.	0.0	0	.	-8	.	.	.	-0.5
COCCCN1C(=O)/C(=C/c2ccc(CNS(=O)(=O)c3ccccc3)o2)C(C(=O)OC)=C1C	-1	2.2	-4.2	-5	6%	7	9	3	3.7	-2.0
CN(C)CCCNC(=O)/C(=C\c1ccc(-c2ccc(Br)cc2)o1)NC(=O)c1ccccc1	-1	29*	0.2	12	23%	27	-58	-74	-34	-0.3
Cc1cccc(OCc2nnc(SCn3nnc4ccccc4c3=O)o2)c1	28	.	-1.6	-3	-3%	1	.	.	.	0.3
COc1cc(/C=C(/C#N)c2nc3ccccc3[nH]2)ccc1Oc1ncccc1[N+](=O)[O-]	-10	.	1.3	11	-2%	38	.	.	.	-0.5
CCOC(=O)c1nnc(-c2ccccc2)nc1Oc1ccc(Cl)cc1	10	.	3.3	-5	-1%	-10	.	.	.	-0.3
COC(=O)/C=C1\NCCSC1=O	-4	.	0.8	-11	-1%	-3	.	.	.	-0.9
Cc1cccc(NCc2cc(Cl)ccc2O)n1	-3	-3.7	?	.	.	6	-52*	-36*	-15*	0.3
CC(CNC(=O)COc1ccccc1)OC(=O)Nc1ccc(Cl)c(Cl)c1 (stereo unspecified)	7	.	3.7	3	30%	-4	.	.	.	2.4
COCCN1C(=O)N[C@@H](c2cccs2)C(C(=O)OC)=C1C	-2	-5.8	-3.6	-6	2%	-11	5	10	13	2.1
Cc1cccc(OCCNc2ccc(C(F)(F)F)cc2[N+](=O)[O-])c1	11	.	-0.8	-4	2%	14	.	.	.	-0.7
CCC(Oc1nc2ccccc2nc1-c1ccccc1NC(C)=O)C(=O)c1ccccc1 (stereo unspecified)	3	.	7.0	9	-1%	9	.	.	.	0.5
CCN(CCCNC(=O)CNC(=O)c1nn(-c2ccc(OC)cc2OC)c(=O)c2ccccc12)c1cccc(C)c1	31	-8.3	-4.3	6	.	6	3	15	0.9	-0.1
O=C(Nc1nc2c(s1)CCCC2)Oc1ccccc1	-15	.	-0.6	0	2%	-6	.	.	.	-0.1
C#Cc1ccc([C@@H]2C=C(C(=O)NC3CC3)O[C@H](OCCCCO)C2)cc1	7	-1.1	2.7	4	9%	-9	-7	-6	-6.3	1.2
CC1CCN(CC(=O)N2CCCc3c2c(=O)oc2ccc(OCc4ccccc4)cc32)CC1	24	.	-0.2	-17	2%	34	.	.	.	-0.5
CCc1cccc(C)c1NC(=O)COC(=O)CSCc1ccccc1	.	-6.2	.	1	-6%	.	10	9	2.7	0.6
O=C(Nc1cc(S(=O)(=O)N2CCOCC2)ccc1N1CCOCC1)C1CCCO1 (stereo unspecified)	-13	0.0	4.2	-7	0%	3	-1	5	-3.0	0.9
Cc1c(C(=O)O)cccc1-n1c(C)cc(C=O)c1C	-10	-2.5	6.7	-7	23%	-7	26	21	4.0	-0.6
CC1CCCN(S(=O)(=O)c2ccc3c(c2)C(C)(C)C(=O)N3C)C1 (stereo unspecified)	3	.	2.8	-2	2%	6	.	.	.	-0.8
CCCc1ccc(-c2c(C)sc(NC(=O)c3ccnn3C)c2C#N)cc1	6	.	69*	56	-42%	-16	.	.	.	0.0
Cc1c(OCc2nn[nH]n2)ccc2c(-c3ccccc3)cc(=O)oc12	-6	.	-0.5	-2	?	0	.	.	.	-0.8
Cc1ccc(CSCC(=O)Nc2ccccc2F)cc1	4	-0.1	-0.9	-3	-4%	1	-23*	-0.3*	-1.8*	-1.0
Cc1cc(C)nc(NC(=O)c2cccc([N+](=O)[O-])c2C)n1	-9	.	-0.2	.	7%	-6	.	.	.	0.2
COc1ccc(NC(=O)CCC(=O)N(Cc2ccc(OC)c(OC)c2)c2nccs2)c(OC)c1	18	2.5	-5.7	1	-6%	-16	0	2	1.8	-0.7
Cc1ccc(C(=O)N/C(=C/c2ccco2)C(=O)N2CCC(C)CC2)cc1	1	-1.9	-5.8	-3	.	9	1	4	-3.0	-1.5
CCSc1nnc(N(CCC(=O)O)CCC(=O)O)s1	2	.	3.7	-7	?	-8	.	.	.	0.9
CC(C)Cn1c(N)c(C(=O)CSc2n[nH]c(N)n2)c(=O)n(C)c1=O	.	?	.	-1	.	.	11	9	2.0	-0.3
COc1ccc(CN(C(=O)/C=C/c2ccco2)C2CCS(=O)(=O)C2)cc1 (stereo unspecified)	-2	5.5	0.4	-6	29%	-1	7	11	7.8	0.1
COc1ccc(CNc2ccc(Br)cc2)cc1	-71	-0.9	-3.0	-4	-12%	38	-25	-33	-6.8	-0.8
CCN(CC)S(=O)(=O)c1ccc(N2CCN(C)CC2)c(NC(=O)Nc2ccc(C)cc2)c1	3	3.1	2.3	5	.	33	-12	-5	15	0.2
Nc1cccnc1Sc1cc(Cl)cc(Cl)c1	-33	.	-2.6	-9	?	-8	.	.	.	0.2
CC1(C)CN(C(=S)Nc2ccc(F)cc2F)C1=O	5	0.8	9.4	-5	-6%	0	14	16	1.9	-0.1
CC(C#N)(NC(=O)CN1CCN(S(=O)(=O)c2ccccc2Cl)CC1)C1CC1 (stereo unspecified)	.	-0.9	.	-2	-3%	.	4	12	-0.1	0.6
O=C(CCNC(=O)c1ccc(Br)cc1)NCC1COc2ccccc2O1 (stereo unspecified)	-3	-0.7	10	.	4%	-10	-1	2	4.0	0.6
O=C(COc1cc(F)ccc1[N+](=O)[O-])Nc1ccc2c(c1)OCO2	.	3.3	.	1	-7%	.	5	21	-2.1	-0.1
COc1ccc(C2=CC(c3sccc3C)n3nnnc3N2)cc1 (stereo unspecified)	13	.	-27	-4	3%	-3	.	.	.	?

(listing goes on)
SMILES	Calb FLC	MLL AF4-AF9 inh	RanGTP-Impb inh	Beta cell apopt	Vif TR-FRET	T cruzi inh	Ecoli rRNA inh	Ecoli rRNA inh OD600	Ecoli rRNA inh RFP	Bfl-1 A1 inh
COc1ccccc1C(=O)OCC(=O)c1ccc(CNC(C)=O)s1	.	-2.4	.	-1	.	.	2	6	-0.1	-0.3
COc1cc(C)nc(Oc2ccc(=O)n(C)n2)n1	6	.	-0.7	.	26%	-13	.	.	.	.
CC(C)(C)c1ccccc1NC(=O)Cn1c(=O)cnc2ccccc21	-1	-1.4	0.2	-1	.	-6	19	19	3.0	-1.1
CSc1nc(N)c2c(C)c(C)sc2n1	8	-7.1	6.0	-5	3%	-11	1	1	-1.2	-0.2
